Screening results (PubChem BioAssay)
CDC25B CDK2 inh = human CDC25B-CDK2/CyclinA binding inhibition | HTRF CDC25B-CDK2/CyclinA binding, anti-His/anti-Flag; active compounds read high | z-score (no concentration beside the values) | 94,000 tested, 0.72% active;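 also: score is relative to mean and SD of negative controls; strong numbers were not always called active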
HIV TAR-Tat = HIV-1 TAR-Tat binding disruption | HIV-1 TAR RNA, Tat peptide displacement FRET; active compounds read high | z-score (no concentration beside the values) | 100,000 tested, 0.6% active;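 also: score is relative to mean and SD of negative controls; some compounds called inactive have numbers as strong as hits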
* marks the source's active call; other numbers are inactive results; / = not tested or not shown.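 The calls were made as follows: active = z-score from 3 up in half or more of its runs; inactive = the rest.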

#	compound	CDC25B CDK2 inh	HIV TAR-Tat
1	COc1ccccc1Cn1cc(C(=O)c2ccc(F)cc2)c(=O)c2cc(OC)c(OC)cc21	-1.92	-0.78
2	Cc1nn(CCCC(=O)NC2CCCCCC2)c(=O)c2cc3sccc3n12	-1.9	/
3	CC(C)CCNC(=O)C1(C)Cn2nc(C(=O)NCCc3cccs3)cc2C(=O)N1C (stereo not drawn)	/	-0.35
4	COc1ccc(-n2nnc(-c3nc(-c4ccc(OC)c(OC)c4)no3)c2C)cc1	/	0.45
5	CSc1ccccc1NC(=O)C(=O)c1c(C)[nH]c2ccccc12	-2.85	/
6	Cn1c(=O)c2c(nc3n2CC(=O)N3c2ccc3c(c2)OCO3)n(C)c1=O	-2.13	/
7	COc1ccc(S(=O)(=O)Nc2cccc(-c3ccc(OC)nn3)c2)c(OC)c1	/	1.2
8	CSc1ncc(C(=O)NC2CCCCC2)c(-c2ccccc2)n1	/	1.67
9	CSc1nnc2c(n1)OC(c1ccc(-c3cccc(Br)c3)o1)Nc1ccccc1-2 (stereo not drawn)	-1.34	/
10	COC(=O)c1c(-n2cccc2)sc2c1CCN(C(C)=O)C2	-1.53	/
11	O=C(c1ccc2c(c1)C(=O)c1ccccc1-2)c1ccccc1Br	-1.36	/
12	Cn1c(-c2cccc(Br)c2)cnc1NCc1ccccc1	-1.41	1.8
13	CC1CCN(c2ccc3nnc(CCC(=O)Nc4cccnc4)n3n2)CC1	/	-1.42
14	CCOC(=O)c1cc(CN2C(=O)CSc3ccc(S(=O)(=O)N4CCOCC4)cc32)on1	/	-1.27
15	O=C(c1cc(C(F)(F)F)cc(C(F)(F)F)c1)N1CCc2cc([N+](=O)[O-])ccc21	-0.53	/
16	COC(=O)COc1ccc(C2C(C(=O)OC)=C(C)NC3=C2C(=O)c2ccccc23)cc1OC (stereo not drawn)	-2.43	0.26
17	CCOC(=O)c1sc(=S)n(-c2ccccc2OCC)c1N	/	2.66
18	COc1ccc2cc(NC(=O)Nc3ccc(OC)c4cccnc34)n(C)c2c1	14.4*	0.07
19	Cc1c(C(=O)O)sc2ncnc(N3CCN(c4ccccc4)CC3)c12	/	28.7*
20	CC(=O)N1c2ccccc2C=Cc2ccccc21	-0.61	/
21	CCc1nn(C(CC)C(=O)NC2CCC(C)CC2)c(=O)c2cc3oc(C)cc3n12 (stereo not drawn)	-1.73	0.41
22	C=CCOC(=O)c1c(N)oc2c(-c3ccccc3)c3c(C(=O)OCC=C)c(N)oc3cc12	-0.38	-4.02
23	CCOC(=O)c1nc(Nc2cc(C)cc(C)c2)c2c(C)noc2n1	/	1.23
24	Cc1nc(N2CCCC2)cc(N2CCN(C(=O)Nc3cccc(F)c3)CC2)n1	-1.43	0.67
25	CCOC(=O)c1ccc(Nc2c(-c3ccc(C)c(C)c3)c(=O)c2=O)cc1	/	3
26	CCOc1ccccc1-c1nn2c(-c3ccncc3)nnc2s1	-0.37	1.97
27	O=C1CN(Cc2cccc(Br)c2)S(=O)(=O)c2ccccc2N1Cc1cccc(F)c1	/	0.57
28	NC(=O)Cn1cnc2c(oc3nc4c(cc32)CCCC4)c1=O	/	1.99
29	COc1ccc(OC)c(Nc2nc(N(C)C)nc(N)c2[N+](=O)[O-])c1	/	1.4
30	CCOC(=O)CNc1ccc(C(F)(F)F)cc1	-1.05	/

#	compound	CDC25B CDK2 inh	HIV TAR-Tat
31	CCOC(=O)c1sc(NC(=O)c2cc(C)on2)c(C(=O)OCC)c1C	-0.6	/
32	CCOc1ccc(-n2c(C)c(C)c3c2ncn2nc(Cc4ccc(OC)c(OC)c4)nc32)cc1	-0.97	0.68
33	CCOc1ccc(-c2cccc(NS(=O)(=O)c3ccc(CC)cc3)c2)nn1	/	1.04
34	CCCc1c(C(=O)NCc2ccc3c(c2)OCO3)cnn1-c1ccccc1	-0.23	/
35	Cn1c(=O)c2c(-c3ccccc3Cl)n(-c3cc(Cl)ccc3O)cc2n(C)c1=O	-0.54	-0.15
36	CO/N=C(/C)c1ccc2c(c1)CCO2	-1.85	/
37	CCCN1C(=NCc2ccc(Cl)cc2)NS(=O)(=O)c2ccccc21	/	-0.19
38	OC1(C2CCN3Cc4ccccc4N=C23)CCCC1 (stereo not drawn)	/	0.22
39	CCn1c[n+](CC(O)COc2ccccc2)c2ccccc21 (stereo not drawn)	-0.35	1.19
40	CC(C)c1nnc(N2C(=O)c3oc4ccccc4c(=O)c3C2c2cccs2)s1 (stereo not drawn)	-6.02	/
41	CCOCCCN1C(=O)c2c(NC(C)=O)c3cc(F)ccc3n2CC1(C)C(=O)NC1CCCCC1 (stereo not drawn)	/	2.26
42	Cc1cc(C)cc(N(C(=O)C(C)(C)Oc2ccc(Cl)cc2)C2C=CS(=O)(=O)C2)c1 (stereo not drawn)	-0.71	0.03
43	O=C(NCc1csc(-c2cccs2)n1)[C@H]1CSCN1C(=O)c1cccc(Cl)c1	/	-1.22
44	O=S1(=O)C[C@H](NCCc2c[nH]c3ccccc23)[C@@H](S(=O)(=O)c2ccc(Cl)cc2)C1	-1.44	0.15
45	CN(C1CC2C=CC1C2)S(=O)(=O)c1cc(Cl)sc1Cl (stereo not drawn)	-1.69	/
46	Cc1nn(-c2ccccc2)nc1C(=O)N1CCCc2ccccc21	-0.65	/
47	Cc1nn(-c2ccccc2)cc1/C=N/NC(=O)c1cccs1	-2.63	/
48	COc1ccc2nc(-c3cccc(N)c3)[nH]c2c1	-0.34	0.97
49	Cc1ccc2cc(CCNC(=O)C34CC5CC(CC(C5)C3)C4)c(=O)[nH]c2c1	-0.82	/
50	O=C1CC(Nc2ccc(N3CCOCC3)cc2)C(=O)N1c1ccccc1F (stereo not drawn)	-2.15	1.05
51	COc1ccc(OC)c2[nH]c(=O)c(CCNC(=O)C3CCCCC3)cc12	-0.92	/
52	Cn1c(=O)n(CC(=O)O)c(=O)c2c1nc1n2CCN1c1ccc(F)cc1	-1.34	0.58
53	CCc1c(C)nc2ncnn2c1Nc1cc(C)cc(C)c1	-1.57	2.45
54	C=CCOC(=O)c1sc(N2C(=O)c3oc4ccccc4c(=O)c3C2c2ccc(F)cc2)nc1C (stereo not drawn)	-0.11	0.48
55	CCOc1ccc(N(C)S(=O)(=O)c2ccc3c(c2)NC(=O)C(C)CS3)cc1 (stereo not drawn)	/	1.93
56	O=S(=O)(N/N=C/c1cccnc1)c1ccc(Cl)c(Cl)c1	-1.54	/
57	Cc1c(C(=O)N2CCC(C)CC2)oc2ccc3c(c12)C(O)CC1(CCCCC1)O3 (stereo not drawn)	-1.85	1.31
58	CCOC(=O)c1c(SCC(=O)Nc2nc(C)cs2)nc(=O)[nH]c1C	/	1.02
59	COC(=O)c1cc(OCC(F)(F)F)ccc1OCC(F)(F)F	-1.31	/
60	CC(C)Nc1nc2c(-c3cccc(C(F)(F)F)c3)nnn2c2ccccc12	-1.59	/

Three entries from above, arranged by molecular weight, lowest first.
#	compound	CDC25B CDK2 inh	HIV TAR-Tat
38	OC1(C2CCN3Cc4ccccc4N=C23)CCCC1 (stereo not drawn)	/	0.22
19	Cc1c(C(=O)O)sc2ncnc(N3CCN(c4ccccc4)CC3)c12	/	28.7*
37	CCCN1C(=NCc2ccc(Cl)cc2)NS(=O)(=O)c2ccccc21	/	-0.19

New compounds follow.
#	compound	CDC25B CDK2 inh	HIV TAR-Tat
61	CC(C)OCCCNc1ncnc2c1cnn2-c1ccc(F)cc1	/	2.15
62	O=C(Cn1cc(S(=O)(=O)c2ccccc2)c(=O)c2cc(F)ccc21)Nc1ccc(F)cc1	-3.34	/
63	CCOC(=O)c1c(C)oc2ncnc(Nc3ccccc3)c12	/	0.8
64	CCOC(=O)c1cn[nH]c1NC(=S)Nc1cccc(C(F)(F)F)c1	-0.95	/
65	O=C1NC(=S)S/C1=C/c1ccccc1C(=O)O	-1.3	/
66	CN(Cc1ccccc1)C(=O)Cn1ncn2nc(-c3cccs3)cc2c1=O	-1.55	-0.08
67	CC1=C(C(=O)OC(C)C)C(c2cccs2)n2ncnc2N1 (stereo not drawn)	-2.3	0.34
68	CN(Cc1ccccc1)C(=O)CN1Cc2ccccc2C1=O	/	1.65
69	Fc1ccccc1-c1nnc(CN2CCN(Cc3ccccc3)CC2)o1	0.47	1.16
70	CSc1cccc(NC2c3ccccc3C(=O)N2c2ccccn2)c1 (stereo not drawn)	-0.21	-0.2
71	COc1ccc(-n2c(SCC(=O)Nc3ccc4c(c3)OCO4)nc3c(c2=O)SCC3)cc1	-1.35	0.33
72	CN(C)c1cc(-c2cc(Cl)sc2Cl)oc(=O)c1Cl	-2.47	/
73	Cc1cc(C)nc(NCCCO)n1	0.13	0.47
74	COc1cc2c(cc1OC)C(c1ccccc1N)=NCC2	1.27	/
75	CCc1ccc(NC2=NS(=O)(=O)C(c3ccc(F)cc3)=C2C)cc1	/	-1.33
76	Cc1cc(C)cc(S(=O)(=O)Nc2cccc(-c3ccc(N4CCCC4)nn3)c2)c1	/	0.49
77	c1ccc(-c2cc(NC3CCCCC3)n3cnnc3n2)cc1	1.15	1.21
78	CCN(CC)S(=O)(=O)c1ccc2oc(C(=O)Nc3ccc(Br)cc3F)c(C)c2c1	/	1.07
79	CC(C)Oc1ccccc1C1CC(=O)Nc2c1c(=O)nc(SCc1ccccc1)n2C (stereo not drawn)	1.03	1.19
80	CCCCNc1nc(Oc2ccc(=O)[nH]n2)nc(N(C)C)n1	-0.32	0.11
81	N#Cc1nc(-c2ccc(COc3ccccc3)o2)oc1NCc1cccnc1	-1.17	-0.06
82	O=C(Nc1ccc2c(c1)OCCO2)c1c(-c2ccccc2)c(-c2ccccc2)n[nH]c1=O	-1.72	2.67
83	CCN1CCN(C2CCN(Cc3cc(OC)c(OC)c(OC)c3)CC2)CC1	-1.6	/
84	Cc1ccc(-c2noc(-c3ccco3)n2)s1	/	0.68
85	Cc1ccc(N2C(=O)N(c3cccc(C)c3C)C3CS(=O)(=O)CC32)cc1 (stereo not drawn)	-0.88	-0.31
86	CCN(Cc1ccccc1)Cc1nnc(-c2ccccc2)o1	-1.43	2.04
87	Cn1c(-n2cccc2)c(-c2c(-c3cccc(Cl)c3)[nH]c3c2c(=O)n(C)c(=O)n3C)c(=O)n(C)c1=O	0.52	0.36
88	O=C(NCc1nnnn1-c1ccccc1)Nc1ccc2c(c1)OCO2	/	1.33
89	CNC(=O)N1CCN(c2nc3cc(F)ccc3n3cccc23)CC1	/	1.14
90	O=S(=O)(c1ccc2nc(NCc3cccs3)cnc2c1)N1CCCCC1	0.26	-1.58

#	compound	CDC25B CDK2 inh	HIV TAR-Tat
91	CCOc1ccccc1NC(=O)N1CCn2c(C)ccc2C1C(C)C (stereo not drawn)	/	-0.06
92	CCc1ccc(-n2nnc(-c3nc(-c4ccccc4C)no3)c2C)cc1	/	1.52
93	Cc1ccc(C(=O)/C=C/Sc2ccc(Cl)cc2)cc1	-1.59	/
94	CCCC(NS(=O)(=O)c1ccc(Br)cc1)C(=O)O (stereo not drawn)	-1.91	-0.08
95	Cc1ccc2nc(C)c(Cc3nnc(SCC(=O)N4CCc5ccccc54)n3C)c(=O)n2c1	-1.18	1.23
96	COc1cc(C(F)(F)F)cc(C(F)(F)F)c1C(=O)O	-1.19	/
97	C=CCN1C(=O)C2(c3ccccc31)c1c(oc3ccc(F)cc3c1=O)C(=O)N2CCOC (stereo not drawn)	-1.49	2.12
98	COC(=O)c1cc(-c2ccc(F)cc2)c2c(=O)[nH]c(=O)n(C)c2n1	-3.56	1.91
99	CCCN1C(=O)C(O)(CC(=O)c2ccc3c(c2)OCCO3)c2ccccc21 (stereo not drawn)	-0.29	-0.22
100	Cc1cc(SCC(=O)N2CCCc3ccccc32)nc(C)n1	-1.72	1.17
101	C=CCN1CC2(c3ccccc3)CN(CC=C)CC(c3ccccc3)(C1)C2=O	-0.76	/
102	S=C1NC2=C(CCc3ccccc32)C(c2ccc3c(c2)OCO3)N1 (stereo not drawn)	-3.02	/
103	O=[N+]([O-])c1cnn(-c2nc(-c3cccs3)cc(C(F)(F)F)n2)c1	-1.33	/
104	COc1ccc(OC2C(=O)N(Cc3ccc4c(c3)OCO4)C2c2ccc3c(c2)OCO3)cc1 (stereo not drawn)	-0.29	2.61
105	Clc1cccc(CSc2nnc(-c3ccncc3)o2)c1	-0.73	2.15
106	CCOc1cc(C2C(C#N)=C(N)Oc3cc(C)oc(=O)c32)ccc1OC(C)C (stereo not drawn)	-0.39	/
107	O=C(CCCc1nnc2c(=O)n(-c3ccc(Cl)cc3)ccn12)Nc1ccc(F)cc1	/	2.26
108	CC1CCC(NC(=O)Cn2cc3c(n2)CCC(C)C3)CC1 (stereo not drawn)	0.24	-0.72
109	O=C(Nc1ccc(OC(F)(F)F)cc1)OCCSCC1COc2ccccc2O1 (stereo not drawn)	-0.92	/
110	O=C(Cn1nnc(COc2ccccc2Cl)n1)NNC(=O)Nc1ccc(Cl)cc1	0.92	/

Random excerpt: six entries already listed, in no set order.
#	compound	CDC25B CDK2 inh	HIV TAR-Tat
108	CC1CCC(NC(=O)Cn2cc3c(n2)CCC(C)C3)CC1 (stereo not drawn)	0.24	-0.72
104	COc1ccc(OC2C(=O)N(Cc3ccc4c(c3)OCO4)C2c2ccc3c(c2)OCO3)cc1 (stereo not drawn)	-0.29	2.61
107	O=C(CCCc1nnc2c(=O)n(-c3ccc(Cl)cc3)ccn12)Nc1ccc(F)cc1	/	2.26
96	COc1cc(C(F)(F)F)cc(C(F)(F)F)c1C(=O)O	-1.19	/
92	CCc1ccc(-n2nnc(-c3nc(-c4ccccc4C)no3)c2C)cc1	/	1.52
106	CCOc1cc(C2C(C#N)=C(N)Oc3cc(C)oc(=O)c32)ccc1OC(C)C (stereo not drawn)	-0.39	/
